Anaer choline gr: choline-fed anaerobic bacterial growth inhibition | Gram-negative bacterium anaerobic choline minimal medium, absorbance growth; hits give low values; many inactives read as strong as hits in the columns shown | calls only | 55,000 compounds, 0.2% hits | AID 1963822;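 active = growth z-score on choline under -2 at 7 or 20 h with little or no fall on glycerol, limits in tiers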;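 note: stock transfer was 300 nL into about 50 µL; the organism is E. coli; final concentration not given here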
Anaer choline gr early: further read-out of Anaer choline gr, marked with its call; z-score; measured here: choline growth z-score, timepoint 1;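 score of optical density at 7 h as mean of two plates; lower means less growth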
Starred values were filed as active, the others as inactive; i = inactive.

SMILES	Anaer choline gr	Anaer choline gr early
Cc1cc(C(=O)N2CCCC2c2cccc(F)c2)no1 (stereo not given)	i	0.82
O=C(c1ccc2c(c1)OCO2)N1CCCC1c1ccccc1Cl (stereo not given)	i	-0.58
CCSc1nnc(-c2nn(C)c3c2CN(S(=O)(=O)c2ccc4c(c2)OCCO4)CC3)n1CC	i	-0.83
CCCC(=O)Nc1ccc(N2CCn3c(nc4ccccc43)C2)cc1	i	0.87
COc1ccc(NC(=O)COc2ccc(C)cc2)cc1CN1CCn2c(nc3ccccc32)C1	i	0.95
CC(=O)N1c2ccc(S(=O)(=O)N3CCC(C(=O)NC(C)c4ccccc4)CC3)cc2CC1C (stereo not given)	i	0.29
COc1ccc(-c2nonc2NC(=O)C(C)Oc2cc(C)cc(C)c2)cc1C (stereo not given)	i	-0.95
Cc1ccccc1-c1c2c(=O)n(C)c(=O)n(C)c2c2n1-c1cc(Cl)ccc1OC2	i	-0.47
Cc1csc(-c2csc(S(=O)(=O)NCCc3ccc(Cl)cc3)c2)n1	i	0.38
Cn1c(=O)c2nc(SCCC(=O)Nc3ccc(F)cc3F)n(C)c2n(C)c1=O	i	0.74
CN(CCc1noc(-c2ccc(C(=O)NCc3cccc(F)c3)cc2)n1)C(=O)c1ccc(Cl)cc1	i	-0.19
Cc1ccc(NC(=O)C2=Cc3ccc(C)cc3OC=C2)c(C)c1	i	1.1
CC(C)n1nnc2cc(S(=O)(=O)N(C)CC(=O)N3CCN(c4ccccn4)CC3)ccc21	i	-1.4
COc1cc(-c2cc(C)no2)ccc1S(=O)(=O)Nc1cc(Cl)ccc1C	i	0.33
Cc1nn(-c2ccccc2)cc1C(=O)N1CCC(C(C)C(=O)NCCc2c[nH]c3ccccc23)CC1 (stereo not given)	i	0.28
Cc1ccccc1-c1noc(CCc2nnc3ccc(N4CCN(c5ccccn5)CC4)nn23)n1	i	0.33
O=C(NCc1ccc(F)cc1)c1ccc(CSc2nc3ccncc3n2Cc2ccc(F)cc2)cc1	i	-0.22
CCC(C)(C)NS(=O)(=O)c1ccc2c(c1)N(Cc1noc(C3CCC3)n1)C(=O)CO2	i	1.1
O=C(NC1CCCCC1)C1CCN(c2ncc(-c3ccccc3)cn2)CC1	i	-2.6
O=C(c1ccc2cnn(Cc3cccc(F)c3)c2c1)N1CCCCC1	i	-0.1

Taken from above:
Entry of `O=C(NCc1ccc(F)cc1)c1ccc(CSc2nc3ccncc3n2Cc2ccc(F)cc2)cc1` in Anaer choline gr early: -0.22
Entry of `Cn1c(=O)c2nc(SCCC(=O)Nc3ccc(F)cc3F)n(C)c2n(C)c1=O` in Anaer choline gr early: 0.74
Entry of `Cc1ccc(NC(=O)C2=Cc3ccc(C)cc3OC=C2)c(C)c1` in Anaer choline gr early: 1.1

New compounds follow:
SMILES	Anaer choline gr	Anaer choline gr early
O=C(NCCC1=CCCCC1)c1ccc2cc(-c3ccccc3)[nH]c2c1	i	0.59
COc1ccc(N2C(=O)C(O)=C(c3ccccc3)C2c2ccc(Cl)cc2)cc1 (stereo not given)	i	-0.21
CC(C)C(=O)NC1CCN(C(=O)C2CCCC2)C1 (stereo not given)	i	-0.18
COc1ccc(-n2[nH]c3c4c(ncc3c2=O)CCCCC4)cc1	i	0.16
COc1ccccc1Oc1cc(-c2cccc(C(=O)NCc3ccc(F)cc3)c2)ncn1	i	-0.37
COc1ccc(OC)c(-c2csc(-c3nnn(-c4cccc(Cl)c4)c3N)n2)c1	i	1.7
COc1ccc(-c2nc3c([nH]2)c(=O)n(C)c(=O)n3C)cc1OC	i	-0.04
NS(=O)(=O)c1cccnc1N1CCSCC1	i	-0.29
Cn1c(CN(c2ccc(F)cc2)S(C)(=O)=O)nnc1SCC(=O)N1CCOCC1	i	-0.06
Cc1ccc(-c2onc(C)c2C)cc1S(=O)(=O)N1CCc2ccccc2C1	i	1.9
CC(C)(C)c1csc(-c2csc(S(=O)(=O)NCCN3CCc4ccccc4C3)c2)n1	i	-0.05
CCN1CCN(C(=O)CC2CCN(S(=O)(=O)c3ccc(Cl)s3)CC2)CC1	i	-0.73
CCc1cc(Sc2ccc(NS(=O)(=O)c3ccc(Cl)cc3)cc2)n2nc(C)nc2n1	i	0.44
COC(=O)c1sccc1NC(=O)c1cc(-c2ccccn2)nc2ccccc12	i	0.22
Cc1noc(C)c1C1CCCN1C(=O)c1cccs1 (stereo not given)	i	1.5
CCCn1cnc2nc(CSc3ccccc3NC(=O)c3ccccc3Cl)cc(=O)n21	i	0.36
COC(=O)c1cc(S(=O)(=O)N(C)CC(=O)NCc2ccc(Cl)cc2)cn1C	i	-0.67
O=C(Nc1cccc(-c2nc(-c3ccccc3)no2)c1)c1ccc(F)cc1	i	-1.3
COCCCNS(=O)(=O)c1ccc2c(c1)CCN2C(=O)CCC(=O)O	i	-0.12
O=C(NC1CCCC1)C1CCN(c2ccc(-c3ccccc3)nn2)CC1	i	0.21

Later entries:
SMILES	Anaer choline gr	Anaer choline gr early
CC1CCN(C(=O)C2CCc3sc(C(=O)N4CCCC4)cc3C2)CC1 (stereo not given)	i	0.14
CCCc1ccc(S(=O)(=O)N2CCCC(c3nnc(C(=O)Nc4ccc(F)cc4)s3)C2)cc1 (stereo not given)	i	-0.17
CCCCNC(=O)C1CCCN(c2cc(=O)n(C)c(=O)n2CC)C1 (stereo not given)	i	1.3
COc1cccc(NC(=O)Cn2c(=O)oc3cc(S(=O)(=O)N4CCC(C)CC4)ccc32)c1	i	0.4
Cc1ccc(C)c(NS(=O)(=O)c2cn(C)cn2)c1	i	0.32
CCc1nnc2ccc(NS(=O)(=O)c3cc(Cl)ccc3OC)nn12	i	-0.61
COc1cc2c(CCNC(C)=O)c[nH]c2cc1O	i	0.12
Nc1nc(=S)c2ncn([C@@H]3O[C@H](CO)[C@@H](O)[C@H]3O)c2[nH]1	i	-1.2
CC1Oc2cc(S(=O)(=O)N3CCN(C(=O)Nc4ccc(F)cc4)CC3)c(Cl)cc2NC1=O (stereo not given)	i	-0.5
O=C(Cc1c[nH]c2ccccc12)NC1(C(=O)NC2CCCCC2)CCCCC1	i	-0.48
CC(C)CNC(=O)N1CCCN(c2nc3cc(Br)ccc3n3cccc23)CC1	i	-0.35
C=CCn1c(=O)c2sc(N(CC)CC)nc2n(CC(=O)Nc2cc(F)ccc2F)c1=O	i	0.56
COc1ccc(C2CCCN(S(C)(=O)=O)C2)cc1 (stereo not given)	i	0.37
O=S(=O)(c1ccccc1)c1nc(-c2ccccc2Cl)oc1NCCCn1ccnc1	i	0.93
COCCCNC(=O)CSc1nnc(-c2ccoc2C)o1	i	-0.61
COc1ccc(-c2[nH]ncc2C(=O)NC2CCCC2)cc1	i	0.5
Cc1cc(C)c2c(-n3cccc3)nn(CC(=O)NCc3cccnc3)c2n1	i	0.31
CC(C)c1cc(NC2CC2)n2nc(-c3cccnc3)nc2n1	i	-1.4
Nc1nc(N)c2nc(CNc3ccc(C(=O)NC(CCC(=O)O)C(=O)O)cc3)cnc2n1 (stereo not given)	i	0.88
O=C1CCCN1CCCNc1nc(-c2ccncc2)nc2c1CCC2	i	1.2

Other records follow.
SMILES	Anaer choline gr	Anaer choline gr early
CCCNC(=O)CCc1c(C)[nH]n(-c2nc(C)c(C)s2)c1=O	i	-0.16
Cc1ccc(CNC(=O)c2[nH]c(C)c(S(=O)(=O)N3CCCC3)c2C)cc1	i	0
CCNc1cc(C)nc(Nc2ccc(NS(=O)(=O)c3ccc(Cl)cc3)cc2)n1	i	-4.9
Cc1noc(C)c1S(=O)(=O)N1CCc2cc3cccc(C)c3nc21	i	0.46
COc1ccc(-c2nnc3c4cnn(-c5cccc(C)c5)c4ncn23)cc1	i	-1.1
CC(C)(C)C1CCc2c(sc3nc(CCC(=O)Nc4ccc(F)cc4)[nH]c(=O)c23)C1 (stereo not given)	i	0.29
CN(C)S(=O)(=O)c1ccc2c(c1)nnn2CCCC(=O)N1CCN(c2ccccc2)CC1	i	-0.79
CCOc1ccc(CN2CCc3nc(Nc4cccc(OC)c4)ncc3C2)cc1OC	i	-1.2
Cc1noc2nc(C)n(CC(=O)N3CCCCC3)c(=O)c12	i	-0.11
CCN1CCN(c2ccc(C(=O)OC)cc2NC(=O)Cc2ccc(OC)c(OC)c2)CC1	i	-0.05
COc1ccccc1Nc1nc2nonc2nc1N1CCC(Cc2ccccc2)CC1	i	0.91
CNc1cc(OC)c(C(=O)N[C@@H]2CCN(Cc3ccccc3)[C@@H]2C)cc1Cl (racemic)	i	0.26
Cc1ccc(-c2nnc3c4ccccc4c(C)nn23)cc1S(=O)(=O)N1CCN(c2ccccc2)CC1	i	-1.4
Cc1cccc(-c2noc(-c3cn(Cc4ccc(NC(=O)Cc5ccccc5)cc4)cn3)n2)c1	i	-0.53
Cc1cc(CNC(=O)NCC2CCCO2)c(C)n1-c1ccc(Cl)cc1 (stereo not given)	i	-1.1
CCOc1ccccc1Cn1c(=O)c2sccc2n2c(=O)[nH]nc12	i	1.2
O=C(Cc1csc(NC(=O)Nc2ccccc2)n1)NCCc1c[nH]c2ccccc12	i	-1.4
COc1ccc(-c2nnc3sc(COc4ccc(Br)cc4)nn23)cc1	i	0.38
CC1CSc2ccc(S(=O)(=O)N3CCOCC3)cc2N(CC(=O)Nc2ccc(F)cc2F)C1=O (stereo not given)	i	0.45
CCCSc1nnc2c(n1)OC(c1cccn1C)N(C(C)=O)c1ccccc1-2 (stereo not given)	i	1.2

The last three compounds of the section before are carried over, then new ones follow.
SMILES	Anaer choline gr	Anaer choline gr early
COc1ccc(-c2nnc3sc(COc4ccc(Br)cc4)nn23)cc1	i	0.38
CC1CSc2ccc(S(=O)(=O)N3CCOCC3)cc2N(CC(=O)Nc2ccc(F)cc2F)C1=O (stereo not given)	i	0.45
CCCSc1nnc2c(n1)OC(c1cccn1C)N(C(C)=O)c1ccccc1-2 (stereo not given)	i	1.2
Cn1nnnc1NCc1ccc2c(c1)n(C)c(=O)n2C	i	0.43
CCCc1ccc(S(=O)(=O)N2CCC(N3CCN(Cc4ccccc4)C(=O)C3=O)CC2)cc1	i	2
Cc1ccc(NC(=O)Nc2cccc(CCc3nc4ccccc4n3C)c2)cc1	i	0.75
Cc1ccc(C)c(CSc2nnc3c(=O)n(-c4ccc(Br)cc4)ccn23)c1	i	-0.67
Cc1ccc(N2C(=O)CN(S(=O)(=O)c3ccccc3)CC2(C)C(=O)NC2CCCC2)cc1F (stereo not given)	i	1.1
COC(=O)c1ccccc1NC(=O)N1CCN(c2ccc(-c3noc(C)n3)cc2)CC1	i	0.22
Cn1nc(C(=O)NCc2ccc(Cl)cc2)c2c1CCN(C(=O)c1cccc(F)c1)C2	i	-0.27
CNC(C)(C)c1nnnn1-c1ccccc1	i	-0.84
O=C(COc1ccccc1)N1CCC2(CC1)Nc1ccccc1-n1cccc12	i	-0.58
c1ccc(NCc2ccc(CNc3ccccn3)cc2)nc1	i	0.15
CCN(CC)S(=O)(=O)c1ccc2nc(N3CCN(c4ccccn4)CC3)cnc2c1	i	1
CCc1nnc(NC(=O)CSc2nnc(-c3cc4ccccc4o3)n2CC)s1	i	-0.15
COc1cccc(CNc2nc3c(S(=O)(=O)c4ccccc4)nnn3c3ccsc23)c1	i	1
Cc1ccc(-c2nc3cc(NC(=O)c4ccc5c(c4)OCCO5)ccc3o2)cc1	i	0.79
Cc1cccc(-c2nc3nc(CNC(C)C)cc(=O)n3[nH]2)c1	i	0.77
CCCCC[C@H](CC(=O)NO)C(=O)N[C@H](C(=O)N1CCC[C@H]1CO)C(C)C	i	-3.1
O=C(O)c1ccc2cc(-c3ccc(O)c(C45CC6CC(CC(C6)C4)C5)c3)ccc2c1	i	0.94
O=C1CSC(c2cccnc2)N1c1ccc(Cl)cc1 (stereo not given)	i	-0.29
CC(C)NC(=O)NC1CCN(C(=O)C2CCC2)C1 (stereo not given)	i	1.1
COC(=O)C1=CO[C@@H](O)[C@@H]2C(CO)=CC[C@H]12	i	2

3 records drawn at random from those above, as already listed:
SMILES	Anaer choline gr	Anaer choline gr early
Cc1ccc(-c2nc3cc(NC(=O)c4ccc5c(c4)OCCO5)ccc3o2)cc1	i	0.79
Cc1ccc(NC(=O)Nc2cccc(CCc3nc4ccccc4n3C)c2)cc1	i	0.75
Cc1cccc(-c2nc3nc(CNC(C)C)cc(=O)n3[nH]2)c1	i	0.77

Additional results:
SMILES	Anaer choline gr	Anaer choline gr early
CCN(CC)S(=O)(=O)c1ccc2c(c1)nnn2CCCC(=O)N1CCN(c2ccccn2)CC1	i	-1.1
CCOC(=O)CNC(=O)N1CCCC1c1cc(C)no1 (stereo not given)	i	-0.72
COc1ccc(-c2cc(C(=O)Nc3ccc(Cl)cc3)nn2C2CCS(=O)(=O)C2)cc1 (stereo not given)	i	2.1
Cc1ccc(OCC(=O)Nc2cc3c(cc2SC2CCCCC2)n(C)c(=O)n3C)cc1	i	-0.51
O=C1CC(c2ccccc2OCc2ccccc2)c2cnn(-c3nc4ccccc4s3)c2N1 (stereo not given)	i	-0.38
O=C(Cn1c(=O)c2cccn2c2ccc(F)cc21)NC1CCN(Cc2ccccc2)CC1	i	-1.5
COc1ccc(-c2cc(OCC(=O)Nc3ccc(Cl)cc3)c3ccccc3n2)cc1	i	0.73
COc1cc(OC)c(NS(=O)(=O)c2cc(-c3cc(C(F)(F)F)[nH]n3)sc2C)cc1Cl	i	-0.36
COc1ccc(NC(=O)c2ccc(C)c(NC3=NC4CS(=O)(=O)CC4S3)c2)cc1OC (stereo not given)	i	-1.3
CCS(=O)(=O)c1ncc(Cl)c(C(=O)Nc2sc3c(c2C(=O)NCCOC)CCCC3)n1	i	-0.47

High-throughput results: PubChem BioAssay, ICCB-Longwood Screening Facility, Harvard Medical School

An excerpt, so the mix of outcomes need not match the whole.
